RanGTP-Impb inh: inhibitors of RanGTP-importin-beta interaction, primary screen, biochemical, FRET, CFP-Ran, YFP-importin-beta, homogeneous | cell-free CFP-Ran/YFP-importin-beta FRET ratio | inhibition, % (no concentration beside the values) | 1.1% of 300,000 active | AID 2216;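 active means most replicates above 15%; inconclusive means exactly half above 15%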;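 further: 0% = DMSO wells and 100% = Ran loaded with GDP instead of GTP; wells of about 40 µL received 100 nL stock; the first replicate is given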
HNF4A DNA FP: change in binding of human HNF4 alpha to DNA | activity change, % at 10 µM | P41235 | HNF4a-FITC DNA binding, fluorescence polarization, 1 h | 0.3% of 360,000 active; in the data active means activity change above about 30%, passing the limit was not always enough;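 further: controls were the assay level and a saturating level of protein; the project sought stronger binding though the title names inhibitors; some compounds called inactive have numbers as strong as hits; positive values seem to mean higher polarization but the record does not say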
Vif TR-FRET: inhibitors of Vif binding to APOBEC3G peptide, primary screen, biochemical, TR-FRET, GST-Vif 1-94, biotin-A3G peptide, dose response retest (AID 1117319). TR-FRET GST-Vif / biotin-A3G peptide binding; higher % means a stronger effect; test concentration not given here; strong numbers were not always called active. inhibition, %; hits with a dose series show IC50 in µM. 0.57% of 260,000 active;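 active means above the screen mean plus three standard deviations and confirmed in dose response; inconclusive means results disagree or hit not tested in dose response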;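 further: Vif residues 1-94 fused to GST binding biotinylated APOBEC3G peptide 110-148; 0% = full assay without inhibitor and 100% = GST in place of GST-Vif; retest series ran down from 100 µM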
AF4-AF9 inh: inhibitors of human MLL-AF4/AF9 interaction | P42568 | AlphaScreen, biotin-AF4 peptide binding to FLAG-AF9 | inhibition, % at 10 µM | 0.47% of 350,000 active | AID 651704;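 active means every replicate reaching a set inhibition limit, whatever the replicate mean, cut at about 25% in these data; inconclusive means mean inhibition reaches that limit but some replicates miss it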;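 further: 0% = plate neutral control median and 100% = total signal loss; the record names both 10 and 1 µM as test concentration; the first replicate is given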
Target sequence (P42568 whole entry, looked up): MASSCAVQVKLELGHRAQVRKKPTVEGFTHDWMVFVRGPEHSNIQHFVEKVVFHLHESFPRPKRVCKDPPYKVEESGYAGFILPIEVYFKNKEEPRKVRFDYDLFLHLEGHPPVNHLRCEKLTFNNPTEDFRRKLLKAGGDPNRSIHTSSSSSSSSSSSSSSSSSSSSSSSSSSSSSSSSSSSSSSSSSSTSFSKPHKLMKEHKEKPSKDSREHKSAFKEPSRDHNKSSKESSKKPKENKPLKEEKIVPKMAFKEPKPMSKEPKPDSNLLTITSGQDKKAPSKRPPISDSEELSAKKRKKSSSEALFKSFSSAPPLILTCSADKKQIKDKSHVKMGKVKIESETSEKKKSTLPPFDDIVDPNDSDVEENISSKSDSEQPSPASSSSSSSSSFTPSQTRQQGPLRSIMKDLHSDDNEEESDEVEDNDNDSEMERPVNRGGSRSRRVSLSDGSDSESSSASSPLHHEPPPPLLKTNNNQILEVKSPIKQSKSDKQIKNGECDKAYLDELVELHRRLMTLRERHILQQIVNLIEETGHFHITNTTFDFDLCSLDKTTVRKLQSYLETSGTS
UCH37 DUB inh: human UCH37 deubiquitinating enzyme inhibition | Q9Y5K5 | purified proteasome/UCH37, Ub-AMC cleavage fluorescence | inhibition, % (no concentration beside the values) | 0.33% of 330,000 active | AID 588478;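 active means mean of two replicates above 20%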;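 further: 0% = compound-free wells with enzyme and 100% = wells lacking proteasome; stock transfer was 100 nL into about 20 µL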
Target sequence (Q9Y5K5 whole entry, looked up): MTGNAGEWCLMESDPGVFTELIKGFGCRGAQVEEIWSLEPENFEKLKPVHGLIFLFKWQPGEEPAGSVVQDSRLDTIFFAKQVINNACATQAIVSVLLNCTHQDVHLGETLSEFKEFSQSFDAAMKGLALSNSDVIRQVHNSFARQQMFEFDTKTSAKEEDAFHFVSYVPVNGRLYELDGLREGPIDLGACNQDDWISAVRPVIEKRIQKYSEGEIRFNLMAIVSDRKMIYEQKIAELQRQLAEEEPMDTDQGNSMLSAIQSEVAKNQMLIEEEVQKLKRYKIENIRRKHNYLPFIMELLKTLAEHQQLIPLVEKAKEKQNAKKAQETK
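Test system – human UCH37 enzyme supplied as purified proteasome complex · Incubation – 30 min preincubation with enzyme, 25 min cleavage at room temperature · Detection – AMC fluorescence from Ub-AMC cleavage, excitation 355 nm, emission 460 nm · Benchmarks – no-proteasome wells (full inhibition) and compound-free wells (no inhibition)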
FGF22 binding: shifts melting point of recombinant human FGF22; calls only at 9.99 µM; 1.5% of 340,000 active; recombinant FGF22 thermal shift, SYPRO orange fluorescence; percent of sucrose octasulfate shift, DMSO zero; AID 651658;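 active means melting point raised past a set limit in the mean and every replicate; inconclusive means no clear call; three in four hits are not shown here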
Target sequence (Q9HCT0 whole entry, looked up): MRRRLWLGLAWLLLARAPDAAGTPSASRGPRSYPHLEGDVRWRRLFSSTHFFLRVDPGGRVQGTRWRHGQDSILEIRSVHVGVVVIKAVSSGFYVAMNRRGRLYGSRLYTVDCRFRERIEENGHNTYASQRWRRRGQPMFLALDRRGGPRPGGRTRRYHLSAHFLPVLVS
E coli growth: inhibitors of Escherichia coli growth; OD600, 23 h; hits give low values; OD600 absorbance (test concentration not listed); 0.21% of 330,000 active;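 active means OD600 absorbance below the run mean of sample wells minus 3.6 SD, in any replicate, cut at about 0.56 in these data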;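 further: stock transfer was 300 nL into about 60 µL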
Numbers without * were called inactive; i = inactive; ? = inconclusive; / = not tested or not shown; & = joins results of further samples. The list is partial; the hit share may differ from the screen's.

SMILES | RanGTP-Impb inh | HNF4A DNA FP | Vif TR-FRET | AF4-AF9 inh | UCH37 DUB inh | FGF22 binding | E coli growth
COc1ccc(C(=O)N2c3ccccc3CC2C)cc1OC (stereo not given) | 7.1 | -1.5 | 2.6% | / | 5.1 | / | 0.738
C1CN(c2nc3nonc3nc2N2CCOCC2)CCO1 | ? | / | / | / | 6.0 | / | 0.684
CCOC(=O)CCN(Cc1ccccc1)S(=O)(=O)c1csc(C(N)=O)c1 | 1.4 | -2.1 | / | -19.7 | 2.0 | i | 0.714
Cc1ccc(C)c(C(=O)CN2C(=O)NC3(CCCCCCC3)C2=O)c1 | -2.7 | 3.0 | 3.1% | -6.0 | -0.2 | i | 0.717
N#CC1CC(c2ccccc2)=NN1c1ccccc1[N+](=O)[O-] (stereo not given) | -3.2 | 1.4 | / | 18.0 | 3.5 | i | 0.682
Cc1ccc(S(=O)(=O)N2CCN(C(=O)N3CCOCC3)CC2)c(C)c1 | -4.4 | 2.3 | -5.0% | -6.5 | -0.2 | i | 0.681
O=c1[nH]c(C2CCCCC2)nc2ccccc12 | -0.7 | -0.2 | ? | / | 6.1 | / | 0.695
COc1cc(OC)cc(C(=O)N2CCN(S(=O)(=O)c3ccc(Cl)s3)CC2)c1 | / | 0.9 | / | 3.1 | -0.7 | i | 0.678
CO/N=C\C(=N\Nc1ccc(OC)cc1)C(=O)c1ccccc1 | -4.2 | 1.4 | -5.3% | / | / | / | /
CCn1c(-c2cc(OC)ccc2OC)csc1=Nc1c(C)n(C)n(-c2ccccc2)c1=O | -1.7 | -3.4 | -0.4%&23.7% | / | 0.8 | / | 0.706
CCOC(=O)CCNC(C)C1COc2ccccc2O1 (stereo not given) | ? | 5.2 | -1.0% | / | 1.8 | / | 0.776
CN(C(=O)CSc1nnc(-c2cccnc2)n1-c1ccccc1F)C1CCS(=O)(=O)C1 (stereo not given) | -1.7 | 2.0 | / | -8.5 | 2.2 | i | 0.711
CCOC(=O)C1=CCN(S(=O)(=O)c2ccc(Br)cc2)C1c1ccccc1 (stereo not given) | / | 4.1 | / | -4.7 | / | i | /
Cc1ccc2ncnc(Nc3cccc([N+](=O)[O-])c3)c2c1 | -0.3 | -0.8 | -1.7% | -2.4 | -7.3 | i | 0.658
COc1ccccc1NC(=S)N1CCC(c2nc3cc(C)c(C)cc3[nH]2)CC1 | ? | 0.2 | 1.2% | -28.9 | 4.5 | / | 0.663
CCCCCC(=O)NNC1CC(=O)N(c2ccccc2)C1=O (stereo not given) | -3.9 | 0.0 | -9.3% | -2.7 | 3.1 | / | 0.697
O=C1NC(c2ccccc2)=C(c2ccc3ccccc3n2)C(c2ccncc2)N1 (stereo not given) | -0.3 | 0.8 | 5.3% | / | -12.1 | / | 0.699
CC(=O)Nc1nc2cc3c(cc2s1)OCO3 | 10.8 | 0.9 | 1.9% | -9.1 | 1.3 | i | 0.717
Cc1c(CN2CCC(C(=O)Nc3cccc(-c4cccc(Cl)c4)c3)CC2)cnn1C | -2.4 | 1.0 | / | 12.3 | 4.7 | i | 0.645
O=C(C[N+]1(CC#Cc2ccccc2)CCCCC1)c1ccc(Cl)cc1 | -1.5 | 4.9 | -12.0% | 2.6 | 0.7 | i | 0.715
Cc1ccc(Oc2ncc(CN3CCOCC3)s2)cc1 | ? | 5.0 | -4.0% | / | 1.6 | / | 0.674
Cc1cc(C(F)(F)F)n(-c2nc(C(=O)NNS(=O)(=O)c3ccccc3[N+](=O)[O-])cs2)n1 | 0.4 | -1.1 | -10.5% | -1.4 | 6.0 | i | 0.677
Cc1cc(C(=O)NCC(=O)OC(C(=O)Nc2cc(C(F)(F)F)ccc2Cl)c2ccccc2)ccc1[N+](=O)[O-] (stereo not given) | 0.2 | -1.4 | -0.2% | / | 1.7 | / | 0.764
NC(=O)NC(c1ccccc1)c1cccc2ccccc12 (stereo not given) | -0.5 | -2.9 | -4.4% | 1.9 | 4.6 | i | 0.694
Cc1nc(-c2ccccc2)nc(-c2ccccc2)n1 | -2.2 | 2.6 | / | -2.2 | 0.5 | i | 0.69
CCOC(=O)c1ccc(S(=O)(=O)N(CCO)Cc2cc3cc(OC)c(OC)cc3[nH]c2=O)cc1 | -3.2 | -2.5 | -18.4% | -0.2 | -11.2 | i | 0.735
COc1ccc(CCNC(=S)Nc2cccc(C)c2)cc1 | -2.6 | -4.7 | -3.4% | / | 4.4 | / | 0.689
CC(NS(=O)(=O)c1ccccc1)C(c1cccs1)N1CCN(c2ccccc2)CC1 (stereo not given) | -0.3 | 0.0 | 0.0% | / | 1.8 | / | 0.698
CCN1CCN(C(=O)c2nn(-c3ccccc3)c(=O)c3ccccc23)CC1 | 5.0 | -2.0 | -2.3% | / | 3.9 | / | 0.656
O=[N+]([O-])c1ccc2cc[nH]c2c1 | / | -3.9 | 14.9% | 1.6 | 7.1 | i | 0.67

Reprinted at random: 3 compounds from above, in no set order.
SMILES | RanGTP-Impb inh | HNF4A DNA FP | Vif TR-FRET | AF4-AF9 inh | UCH37 DUB inh | FGF22 binding | E coli growth
CCCCCC(=O)NNC1CC(=O)N(c2ccccc2)C1=O (stereo not given) | -3.9 | 0.0 | -9.3% | -2.7 | 3.1 | / | 0.697
Cc1cc(C(F)(F)F)n(-c2nc(C(=O)NNS(=O)(=O)c3ccccc3[N+](=O)[O-])cs2)n1 | 0.4 | -1.1 | -10.5% | -1.4 | 6.0 | i | 0.677
Cc1nc(-c2ccccc2)nc(-c2ccccc2)n1 | -2.2 | 2.6 | / | -2.2 | 0.5 | i | 0.69

Further compounds follow.
SMILES | RanGTP-Impb inh | HNF4A DNA FP | Vif TR-FRET | AF4-AF9 inh | UCH37 DUB inh | FGF22 binding | E coli growth
C[C@H](CO)N1C[C@H](C)[C@@H](CN(C)C(=O)NC2CCCCC2)Oc2c(NC(=O)C3CCCCC3)cccc2C1=O | / | -1.9 | -4.3% | -2.4&-4.4 | 6.8 | i | 0.732
C[C@@H]1CN([C@@H](C)CO)C(=O)c2cc(NC(=O)C3CC3)ccc2O[C@H]1CN(C)C | / | -1.0 | / | -0.6&-1.2 | -0.5 | i | /
COc1ccccc1OCC(=O)N/N=C(\C)c1ccc2ccccc2c1 | / | -3.0 | -10.2% | -0.6 | / | i | /
CCOC(=O)C(NC(=O)CCC(=O)Nc1ccc(S(N)(=O)=O)cc1)C(O)c1ccccc1 (stereo not given) | 0.2 | / | -6.8% | / | 4.6 | / | 0.644
O=C(NCCCCCCNC(=O)OCCO)OCCO | -3.0 | 4.6 | / | -0.5 | 1.9 | i | 0.681
Cc1cc2ccccn2c1C(=O)c1cc([N+](=O)[O-])cc([N+](=O)[O-])c1 | -0.3 | 3.6 | 31.8% | 32.6* | 7.1 | i | 0.651
CC(=O)Nc1ccc(C(=O)N2CCCCC2c2cc(C(=O)NC(C)C)no2)cc1 (stereo not given) | / | -3.2 | / | -7.3 | / | i | /
Cc1ccc(-n2nc(C)c(/C=N/n3c(C)n[nH]c3=S)c2Cl)cc1 | 3.0 | 0.1 | / | -0.2 | / | i | /
CCn1c(SCC(=O)N2CCC(C)CC2)nc2c(c1=O)SC(C)C2 (stereo not given) | 5.8 | -1.6 | -4.4% | 0.3 | 9.8 | i | 0.728
O=C(NCc1ccco1)/C(=C/c1ccccc1F)NC(=O)c1ccccc1 | 1.8 | 0.0 | / | 1.7 | 2.2 | i | 0.621
CNC1(c2nnnn2-c2c(C)cccc2C)CCOC(C)(C)C1 (stereo not given) | -1.3 | 2.9 | -8.7% | 5.5 | 2.0 | i | 0.706
CSc1nsc(N/N=C/c2ccccc2)c1C#N | -3.4 | 4.2 | -8.7% | 5.7 | / | i | /
Cc1c(NC(=O)COC(=O)c2ncc(Cl)c(Cl)c2Cl)c(=O)n(-c2ccccc2)n1C | -0.2 | -2.4 | -7.9% | -3.5 | 3.9 | i | 0.672
CCN1CCN(C(=O)c2ccc3c(c2)N(Cc2ccccc2)C(=O)c2ccccc2S3=O)CC1 (stereo not given) | 3.9 | 2.2 | / | 49.5* | 2.7 | i | 0.657
O=C(COC(=O)CCC1CCCC1)NCc1ccc(Cl)cc1 | ? | -1.0 | -2.6% | -1.9 | 2.3 | i | 0.746
O=c1c(C(c2ccc(Cl)cc2)c2c(O)nc3n(c2=O)CCCS3)c(O)nc2n1CCCS2 | 0.2 | 6.8 | 30.4% | -1.7 | 2.1 | i | 0.645
COc1cc(OC)cc(-c2c(C#Cc3ccsc3)c3cc(-c4ccc(OC)c(OC)c4)ccc3n2C)c1 | / | 15.2 | / | -0.3 | -32.1 | i | 0.728
COCCN(C(=O)c1cc(S(=O)(=O)N2CCCCC2)ccc1Cl)c1c(N)n(CC(C)C)c(=O)[nH]c1=O | / | 1.1 | -6.2% | -2.3 | 4.5 | i | 0.669
Cc1ccc(C2=NN(CCC(=O)NCc3ccc4c(c3)OCO4)C(=O)CC2)cc1 | -2.9 | -4.3 | / | 1.4 | 4.9 | i | 0.721
CCOC(=O)CNc1nc(C(C)(C)C)nc2c1nnn2Cc1ccccc1Cl | 7.0 | 0.6 | 16.2% | / | 1.3 | / | 0.72
c1csc(COc2ccccc2CNC2CCCCC2)c1 | -3.0 | 4.0 | 18.8% | / | 4.8 | / | 0.693
O=C(NC1(C(F)(F)F)C(=O)Nc2c1c(=O)[nH]c(=O)n2-c1ccc(F)cc1)c1cccnc1 (stereo not given) | -1.0 | -0.3 | -4.7% | / | 4.3 | / | 0.69
CC(C)Nc1nc(-c2ccncc2)nc(-c2ccc(Cl)cc2)c1C#N | 0.3 | 3.2 | -26.1% | -4.0 | -4.8 | i | 0.747
CC(C)C(=O)NC(=S)Nc1ccccc1N1CCN(C(=O)c2ccccc2)CC1 | -4.9 | -0.4 | -22.5% | -0.8 | -3.2 | / | 0.698
CCN(CC)CCCNC(=O)c1ccc(N2CCCCC2)c(NS(=O)(=O)c2ccc(C)cc2)c1 | 3.3 | 2.7 | / | 6.5 | 0.5 | i | 0.712
Cc1cccc(S(=O)(=O)Nc2cccc(-c3cn4ccsc4n3)c2)c1 | 1.9 | 0.4 | -7.5% | / | -0.2 | / | 0.7
CCCN1C(=O)SC(CC(=O)Nc2ccc(C)cc2)C1=O (stereo not given) | 1.1 | 0.8 | 0.7% | / | 3.0 | / | 0.7
Cn1nccc1NC(=O)CC(CC(=O)O)c1ccccc1 (stereo not given) | 8.8 | 0.3 | / | 0.1 | -0.1 | i | 0.66
CC1CCC(C(C)C)C(OCC(O)CNC(C)C)C1 (stereo not given) | 3.0 | -1.0 | 2.1% | -1.5 | 1.8 | i | 0.691
CCSc1nnc(NC(=O)c2nc3nc(C)cc(C)n3n2)s1 | 1.1 | -0.9 | 5.6% | 0.7 | 2.7 | i | 0.69
NC(=S)NNC(=O)COc1ccccc1O | -0.5 | 1.0 | 2.2% | 3.6 | -1.7 | i | 0.682
CCCN1CNc2c(c(=O)[nH]c(=S)n2CCc2ccc(OC)c(OC)c2)C1 | 1.1 | 1.6 | -6.3% | -0.9 | 1.5 | / | 0.684
Cc1cc(C)cc(N(CC(=O)N2CCc3ccccc32)S(=O)(=O)c2c(C)noc2C)c1 | 6.2 | -2.3 | -3.8% | -1.3 | 2.5 | i | 0.74
CCN(CC(=O)Nc1ccc(NC(C)=O)cc1)C(=O)c1ccccc1Sc1ccccc1C#N | / | -1.8 | -9.0% | 8.0 | -0.1 | i | 0.623
O=C(/C=C/c1ccc([N+](=O)[O-])s1)N1CCCC1 | 2.1 | 3.2 | 1.4% | -0.3 | 11.6 | i | 0.606
COc1ccc(Cl)cc1C(=O)NC(=S)Nc1ccccc1N1CCOCC1 | / | -2.0 | / | -6.1 | 5.9 | i | 0.745
